ALR inh: blocks human ALR sulfhydryl oxidase activity; P55789; purified ALR, DTT oxidation, H2O2 HRP-luminol luminescence; inhibition, % (no concentration beside the values); actives 3.8% (n = 290,000); AID 485317;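 active means mean and each replicate at 75% or more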;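 further: stock transfer was 7.5 nL into about 7.5 µL; 0% = neutral wells and 100% = wells with inactivated enzyme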
FGF22 binding: binders of recombinant human FGF22 by thermal shift. SYPRO orange fluorescence; percent of sucrose octasulfate shift, DMSO zero. AID 651658. calls only at 9.99 µM. actives 1.5% (n = 340,000). Q9HCT0;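 active means melting point raised past a set limit in the mean and every replicate; three in four hits are not shown here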
E coli growth: blocks Escherichia coli growth; AID 1053175; OD600 absorbance (concentration not given with the values); OD600, 23 h; stronger effect = lower value; actives 0.21% (n = 330,000);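 active means OD600 absorbance below the run mean of sample wells minus 3.6 SD, in any replicate, cut at about 0.56 in these data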;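 further: stock transfer was 300 nL into about 60 µL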
LANA-H2B inh: blocks KSHV LANA binding to histone H2A/H2B; Q9QR71; cell-free LANA-H2A/H2B peptide, fluorescence polarization; inhibition, % (concentration not given with the values); actives 0.6% (n = 320,000); AID 2629; in the data active means inhibition mostly above about 10%, no sharp cut-off; inactive means mostly below about 6.7%;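 further: stock transfer was 7.5 nL into about 10 µL; 0% = median of vehicle wells and 100% = median of positive control wells; one replicate is shown; the record names a cut of 25% in any replicate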
Target sequence (Q9QR71 whole entry, looked up): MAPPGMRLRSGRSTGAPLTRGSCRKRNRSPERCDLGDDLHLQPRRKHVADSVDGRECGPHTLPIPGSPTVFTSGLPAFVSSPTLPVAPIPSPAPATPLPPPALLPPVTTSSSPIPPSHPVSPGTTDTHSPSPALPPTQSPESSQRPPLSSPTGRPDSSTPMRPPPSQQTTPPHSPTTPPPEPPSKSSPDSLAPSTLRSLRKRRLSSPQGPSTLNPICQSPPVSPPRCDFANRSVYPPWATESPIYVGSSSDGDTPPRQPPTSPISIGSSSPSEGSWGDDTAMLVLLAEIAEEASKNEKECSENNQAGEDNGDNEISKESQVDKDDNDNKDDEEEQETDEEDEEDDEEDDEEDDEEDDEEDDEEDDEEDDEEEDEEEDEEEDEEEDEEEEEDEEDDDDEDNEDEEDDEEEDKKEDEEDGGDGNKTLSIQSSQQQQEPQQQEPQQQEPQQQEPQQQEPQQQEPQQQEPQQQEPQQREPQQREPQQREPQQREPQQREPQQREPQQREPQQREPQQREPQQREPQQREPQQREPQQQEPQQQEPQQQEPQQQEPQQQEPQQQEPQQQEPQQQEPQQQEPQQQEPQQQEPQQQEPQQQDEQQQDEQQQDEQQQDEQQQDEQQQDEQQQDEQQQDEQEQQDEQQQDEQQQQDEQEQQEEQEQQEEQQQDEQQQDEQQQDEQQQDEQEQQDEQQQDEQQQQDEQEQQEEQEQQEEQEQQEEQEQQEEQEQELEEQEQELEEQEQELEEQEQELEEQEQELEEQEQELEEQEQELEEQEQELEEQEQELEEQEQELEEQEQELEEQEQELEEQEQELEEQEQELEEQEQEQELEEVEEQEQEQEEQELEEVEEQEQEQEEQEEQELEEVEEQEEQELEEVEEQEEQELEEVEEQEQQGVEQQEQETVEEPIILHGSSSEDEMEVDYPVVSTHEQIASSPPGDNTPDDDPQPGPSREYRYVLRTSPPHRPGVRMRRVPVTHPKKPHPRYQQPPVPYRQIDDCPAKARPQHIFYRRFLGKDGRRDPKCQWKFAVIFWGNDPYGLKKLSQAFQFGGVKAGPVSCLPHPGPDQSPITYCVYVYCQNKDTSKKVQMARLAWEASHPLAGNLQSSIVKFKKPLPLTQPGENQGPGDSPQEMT
Beta2AR agonist: activates human beta-2 adrenergic receptor causing internalization | P07550 | Am2.2-beta2AR cells, FAP receptor internalization, flow cytometry; reference of the scale not given here | response, % (no concentration beside the values) | actives 0.43% (n = 340,000) | AID 504454;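 active means response above a set limit, near 3 SD of response in nonfluorescent compounds, cut at about 42% in these data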;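 further: stock transfer was 100 nL into about 11 µL; a reference agonist was the positive control; negative values mostly stem from fluorescent compounds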
UCH37 inh: blocks the human deubiquitinase UCH37; Q9Y5K5; purified proteasome/UCH37, Ub-AMC cleavage fluorescence; inhibition, % (test concentration not listed); actives 0.33% (n = 330,000); AID 588478;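 active means mean of two replicates above 20%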;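 further: 0% = compound-free wells with enzyme and 100% = wells lacking proteasome; stock transfer was 100 nL into about 20 µL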
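Schedule: 30 min plus 25 min, room temperature / Material: human UCH37 within purified proteasomes / Technique: AMC fluorescence intensity at 355/460 nm / Buffer or medium: pH 7.4 Tris-HCl (50 mM) with ovalbumin, ATP-MgCl2, DTT / Controls: wells without proteasome as full block, compound-free enzyme plus substrate as uninhibited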
HNF4A DNA FP: change in binding of human HNF4 alpha to DNA | actives 0.3% (n = 360,000) | AID 1224865 | activity change, % at 10 µM | HNF4a-FITC DNA binding, fluorescence polarization, 1 h; in the data active means activity change above about 30%, passing the limit was not always enough;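 further: controls were the assay level and a saturating level of protein; the project sought stronger binding though the title names inhibitors; some compounds called inactive have numbers as strong as hits; positive values seem to mean higher polarization but the record does not say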
Active calls of the source: *. Not all compounds are listed; rates above refer to the full screens.

What do the screens show for `CC(=O)c1ccc(NC(=O)COC(=O)c2ccccc2Nc2ccccc2)cc1`?
E coli growth: 0.702; LANA-H2B inh: 0.9; Beta2AR agonist: -2.1; UCH37 inh: -131.7; HNF4A DNA FP: 2.7

What do the screens show for `O=C(NCCc1ccccc1)C1CCC(=O)N(Cc2cccc(C(F)(F)F)c2)C1` (centres undefined)?
ALR inh: -14.8; FGF22 binding: inactive; E coli growth: 0.72; LANA-H2B inh: 5.3; Beta2AR agonist: 3.8; UCH37 inh: 3.8; HNF4A DNA FP: -3.2

Results for Cc1ccccc1C(=O)N1CCN(c2ccc(NC(=O)Cc3ccccc3)cc2)CC1 ?
ALR inh: -2.3; FGF22 binding: inactive; E coli growth: 0.699; LANA-H2B inh: -11.2; Beta2AR agonist: 10.9; UCH37 inh: 1.4; HNF4A DNA FP: -0.3

How did CN(CC(=O)Nc1ccccc1C(F)(F)F)C(=O)C1CC1 do in these assays?
ALR inh: -4.7; FGF22 binding: inactive; E coli growth: 0.668; LANA-H2B inh: 3.5; Beta2AR agonist: 2.8; UCH37 inh: 3.2; HNF4A DNA FP: 5.4

What do the screens show for `COc1ccc(C(C)NC(=O)Nc2ccc(C(C)=O)cc2)cc1OC` (centres undefined)?
ALR inh: -6.1; FGF22 binding: inactive; E coli growth: 0.71; LANA-H2B inh: 2.2; Beta2AR agonist: 5.1; UCH37 inh: 1.1; HNF4A DNA FP: -3.4

Results for CCOC(=O)c1c(C(C)(C)C)oc2ccc(O)cc12 ?
E coli growth: 0.699; LANA-H2B inh: -3.3; Beta2AR agonist: -1.4; UCH37 inh: -4.4; HNF4A DNA FP: 3.3

How did COc1ccc(S(=O)(=O)Nc2ccc(S(=O)(=O)N3CCCCC3)cc2)cc1 do in these assays?
ALR inh: 97.5*; E coli growth: 0.677; LANA-H2B inh: -2.0; Beta2AR agonist: 2.3; UCH37 inh: 0.8; HNF4A DNA FP: -0.5

What do the screens show for `O=c1ccc(S(=O)(=O)N2CCCC2)cn1Cc1ccc(Cl)cc1Cl`?
ALR inh: -6.8; FGF22 binding: inactive; E coli growth: 0.7; Beta2AR agonist: -0.9; UCH37 inh: 1.3; HNF4A DNA FP: -0.1

How did CCOc1ccc(C(=O)Nc2cccc(-n3cnnn3)c2)cc1OCC do in these assays?
ALR inh: 1.3; FGF22 binding: inactive; E coli growth: 0.654; LANA-H2B inh: 2.2; Beta2AR agonist: 7.7; UCH37 inh: 1.2; HNF4A DNA FP: 4.5

Results for O=c1oc(-c2cccs2)nc2ccc(Br)cc12 ?
ALR inh: 5.2; E coli growth: 0.662; LANA-H2B inh: -1.1; Beta2AR agonist: 4.0; UCH37 inh: -1.2; HNF4A DNA FP: 2.7

What do the screens show for `Cc1ccc(-n2nnnc2SCC(=O)Nc2cc(C)on2)c(C)c1`?
ALR inh: -4.5; FGF22 binding: inactive; LANA-H2B inh: -2.6; Beta2AR agonist: 12.3; HNF4A DNA FP: 0.9

What do the screens show for `COc1ccc(NC(=S)N2CCN(C/C=C/c3ccccc3)CC2)cc1`?
ALR inh: -18.7; FGF22 binding: inactive; LANA-H2B inh: 0.7; Beta2AR agonist: 10.8; UCH37 inh: 4.2; HNF4A DNA FP: 1.0

What do the screens show for `COc1cc(NC(C)=O)ccc1NC(=O)c1cc2ccccc2o1`?
ALR inh: -2.6; FGF22 binding: inactive; E coli growth: 0.666; LANA-H2B inh: 0.3; Beta2AR agonist: -4.8; UCH37 inh: -31.3; HNF4A DNA FP: 0.4

What do the screens show for `CC1CCC2(CC1)NC(=O)N(CC(=O)c1ccc3c(c1)OCO3)C2=O` (centres undefined)?
FGF22 binding: inactive; E coli growth: 0.676; LANA-H2B inh: -5.3; Beta2AR agonist: 0.6; UCH37 inh: -1.1; HNF4A DNA FP: 1.2

Results for Cc1cc(C(=O)CSc2ccc(F)cc2)cc(C)c1O ?
ALR inh: 49.9; FGF22 binding: inactive; E coli growth: 0.678; LANA-H2B inh: 4.1; Beta2AR agonist: 2.8; UCH37 inh: 5.1; HNF4A DNA FP: 0.7

Results for COc1ccc(OC)c(S(=O)(=O)CC(O)COc2ccccc2Cl)c1 (centres undefined) ?
ALR inh: -10.7; FGF22 binding: inactive; E coli growth: 0.737; LANA-H2B inh: -8.3; Beta2AR agonist: -3.2; UCH37 inh: 4.4; HNF4A DNA FP: -2.7

What do the screens show for `CC(=O)c1ccc(Nc2nc3ccccc3nc2NS(=O)(=O)c2cccs2)cc1`?
ALR inh: -31.2; FGF22 binding: inactive; E coli growth: 0.713; LANA-H2B inh: 0.2; Beta2AR agonist: 14.3; UCH37 inh: -26.4; HNF4A DNA FP: 0.5

Results for Cc1ccc(Nc2cccccc2=O)cc1 ?
ALR inh: 0.4; E coli growth: 0.685; LANA-H2B inh: -0.3; Beta2AR agonist: 8.3; UCH37 inh: 6.7; HNF4A DNA FP: -1.4

What do the screens show for `CC(=O)OC/C=C(\C)CCC=C(C)C`?
FGF22 binding: inactive; E coli growth: 0.734; LANA-H2B inh: -2.5; Beta2AR agonist: 6.1; UCH37 inh: 17.9; HNF4A DNA FP: 2.4

Results for Cc1c(NS(=O)(=O)c2ccc(Br)s2)c(=O)n(-c2ccccc2)n1C ?
ALR inh: 3.7; E coli growth: 0.752; LANA-H2B inh: 2.0; Beta2AR agonist: 4.3; UCH37 inh: 1.9; HNF4A DNA FP: 1.3

Results for COc1ccc(-n2c(COc3cccc4ccccc34)nnc2SCC(=O)NCc2ccco2)cc1 ?
ALR inh: -23.7; E coli growth: 0.654; LANA-H2B inh: -0.3; Beta2AR agonist: 19.8; UCH37 inh: 0.5; HNF4A DNA FP: 1.3

Results for COc1ccc2c(c1)C(=O)N(c1ccc(C)cc1)C(=O)C2 ?
ALR inh: 11.0; E coli growth: 0.754; LANA-H2B inh: 2.6; Beta2AR agonist: -7.6; UCH37 inh: -2.5; HNF4A DNA FP: 0.9

What do the screens show for `Cc1cc(CNC(=O)CC2C(=O)NCCN2Cc2ccccc2C(F)(F)F)nn1C` (centres undefined)?
FGF22 binding: inactive; E coli growth: 0.685; Beta2AR agonist: -3.8; UCH37 inh: 0.2; HNF4A DNA FP: -0.2

What do the screens show for `O=C(NC1CCS(=O)(=O)C1)c1ccc(S(=O)(=O)N2CCCCC2)cc1` (centres undefined)?
ALR inh: -5.4; E coli growth: 0.644; LANA-H2B inh: -2.9; Beta2AR agonist: -11.4; UCH37 inh: 4.5; HNF4A DNA FP: 0.8

Results for CCCn1cc(NC(=O)c2cc(-c3ccccc3)on2)cn1 ?
ALR inh: 0.0; E coli growth: 0.661; LANA-H2B inh: 2.4; Beta2AR agonist: -12.1; UCH37 inh: 4.9; HNF4A DNA FP: 0.4

What do the screens show for `CC1Nc2ncnc(N3CCOCC3)c2N(Cc2ccccc2)C1=O` (centres undefined)?
ALR inh: 1.6; FGF22 binding: inactive; E coli growth: 0.712; LANA-H2B inh: -0.5; Beta2AR agonist: 1.9; UCH37 inh: -0.9; HNF4A DNA FP: -0.6

Results for COc1ccc(CC(NC(C)=O)C(=O)NC2CCN(c3c4c(nc5ncnn35)CCC4)CC2)cc1OC (centres undefined) ?
ALR inh: 14.7; E coli growth: 0.737; LANA-H2B inh: -0.7; UCH37 inh: 2.0

How did O=C(NC1CCCCC1)c1ccc([N+](=O)[O-])cc1 do in these assays?
FGF22 binding: inactive; E coli growth: 0.668; Beta2AR agonist: 4.6; UCH37 inh: 2.2; HNF4A DNA FP: 0.6

What do the screens show for `O=C1C2CCCN2C(c2cccs2)N1c1ccc(Cl)cc1` (centres undefined)?
ALR inh: -4.5; E coli growth: 0.673; LANA-H2B inh: -1.3; Beta2AR agonist: 4.1; UCH37 inh: 4.7; HNF4A DNA FP: 1.4

How did CC(C)CC(=O)N/C(N)=N/c1nc2ccccc2o1 do in these assays?
FGF22 binding: inactive; E coli growth: 0.664; LANA-H2B inh: 6.2; Beta2AR agonist: -3.6; UCH37 inh: 3.8; HNF4A DNA FP: 0.7

What do the screens show for `COc1ccc(-c2csc(NC(=O)C3CC(=O)N(c4ccc5c(c4)OCCO5)C3)n2)cc1` (centres undefined)?
E coli growth: 0.728; LANA-H2B inh: 1.3; Beta2AR agonist: 7.0; UCH37 inh: 3.4; HNF4A DNA FP: -3.0

What do the screens show for `CC(C)CNC(=O)CN(c1cccc(Cl)c1)S(C)(=O)=O`?
ALR inh: -9.3; FGF22 binding: inactive; E coli growth: 0.641; LANA-H2B inh: 3.9; Beta2AR agonist: 1.1; UCH37 inh: 3.2; HNF4A DNA FP: 3.6

What do the screens show for `CC(=O)c1cccc(NC(=O)CCCOc2ccc(C)cc2)c1`?
ALR inh: -9.4; FGF22 binding: inactive; E coli growth: 0.688; LANA-H2B inh: -0.7; Beta2AR agonist: -3.8; UCH37 inh: 2.6; HNF4A DNA FP: -0.4

What do the screens show for `CCC(C)/C(C)=N/NC(=O)CSc1nc2ccccc2[nH]1` (centres undefined)?
ALR inh: 47.5; LANA-H2B inh: 0.1; Beta2AR agonist: -21.2; HNF4A DNA FP: 2.7

What do the screens show for `Cc1cc(=O)[nH]c(SCC(=O)NCCc2ccccc2)n1`?
ALR inh: -0.2; E coli growth: 0.649; LANA-H2B inh: 1.8; Beta2AR agonist: 3.3; UCH37 inh: 1.1; HNF4A DNA FP: -3.4

What do the screens show for `COc1ccccc1NC(=O)N(Cc1ccccc1)C1=NCC(C)S1` (centres undefined)?
ALR inh: -7.8; E coli growth: 0.732; LANA-H2B inh: -2.8; Beta2AR agonist: 11.4; UCH37 inh: 8.3; HNF4A DNA FP: 2.2

2 records drawn at random from those above:
How did O=C(NC1CCCCC1)c1ccc([N+](=O)[O-])cc1 do in these assays?
FGF22 binding: inactive; E coli growth: 0.668; Beta2AR agonist: 4.6; UCH37 inh: 2.2; HNF4A DNA FP: 0.6

What do the screens show for `COc1ccc(-c2csc(NC(=O)C3CC(=O)N(c4ccc5c(c4)OCCO5)C3)n2)cc1` (centres undefined)?
E coli growth: 0.728; LANA-H2B inh: 1.3; Beta2AR agonist: 7.0; UCH37 inh: 3.4; HNF4A DNA FP: -3.0

New compounds follow.
What do the screens show for `COc1ccc(CN2C(=O)CN(C3CCCCCC3)C(=O)C2c2ccc(F)cc2)cc1` (centres undefined)?
ALR inh: -4.9; E coli growth: 0.75; LANA-H2B inh: 7.1; Beta2AR agonist: -5.4; UCH37 inh: 1.7; HNF4A DNA FP: 6.5

What do the screens show for `N#Cc1c2n(c3c(=S)nc[nH]c13)CCCCC2`?
ALR inh: 92.7*; E coli growth: 0.725; LANA-H2B inh: 0.0; Beta2AR agonist: -8.8; UCH37 inh: 7.4; HNF4A DNA FP: -0.8

What do the screens show for `Cc1ccccc1-n1nnnc1SCC(C)C`?
ALR inh: 1.7; FGF22 binding: inactive; E coli growth: 0.652; LANA-H2B inh: 0.0; Beta2AR agonist: 3.0; UCH37 inh: 3.4; HNF4A DNA FP: 0.8

What do the screens show for `Cc1ccc(CSc2nnc3nc(C)cc(C)n23)cc1`?
E coli growth: 0.796; LANA-H2B inh: 4.7; Beta2AR agonist: 1.3; UCH37 inh: 0.0; HNF4A DNA FP: -0.6

What do the screens show for `CCC(=O)Nc1cccc(C(=O)/C=C/c2cccs2)c1`?
ALR inh: -1.7; FGF22 binding: inactive; E coli growth: 0.631; LANA-H2B inh: -6.4; Beta2AR agonist: 1.8; UCH37 inh: 7.2; HNF4A DNA FP: 0.2

How did CCCCCCCCCn1ccc(=N)cc1 do in these assays?
ALR inh: -15.4; FGF22 binding: inactive; E coli growth: 0.508; LANA-H2B inh: 3.7; Beta2AR agonist: 11.4; UCH37 inh: 4.5; HNF4A DNA FP: 1.3

What do the screens show for `COc1ccc(CNC(=O)CC2(CC(=O)O)CCCCC2)cc1`?
FGF22 binding: inactive; E coli growth: 0.628; LANA-H2B inh: 13.7; Beta2AR agonist: -1.6; UCH37 inh: 6.1; HNF4A DNA FP: -2.4

Results for CN(C(=O)COC(=O)c1ccc2c(c1)OCCO2)C1CCCCC1 ?
FGF22 binding: inactive; E coli growth: 0.682; Beta2AR agonist: -4.4; UCH37 inh: 3.8; HNF4A DNA FP: -1.8

Bioassay records as filed in PubChem.
